# StopGo RLuc = lowers the Renilla signal of an FMDV 2A StopGo reporter; HEK cells with a luciferase reporter of 2A StopGo recoding; Potency, µM (doses to about 57.5 µM), for the others: top-dose signal change, negative = less light; actives 0.32% (n = 120,000); AID 1745857; active means well fitted falling curve with a large enough effect; inconclusive means small, poorly fitted or top-dose-only effect; inactive means no such curve, though single readings can be large or run the other way; further: nearly all actives have a fitted effect of over 55% in size; overnight with compound
# 2A firefly = FMDV 2A StopGo reporter, firefly signal; HEK cells with a luciferase reporter of 2A StopGo recoding; Potency, µM (doses to about 57.5 µM), for the others: at the top dose signal change, negative = less light; actives 0.23% (n = 120,000); active = well fitted falling curve with a large enough effect; inconclusive = small, poorly fitted or top-dose-only effect; inactive = no such curve, though single readings can be large or run the other way; further: nearly all actives have a fitted effect of over 60% in size; overnight with compound
# The depositor's hits bear a star; ? = inconclusive; [ ] = another dose, or the depositor's remark. On the % scale 0 is the no-effect control and ±100 the full control effect; potency means the concentration at half of the fitted maximal effect. This is a subset; count on the stated rates, not on these rows.
SMILES,StopGo RLuc,2A firefly
COc1cc(/C=C(/C#N)C(=O)c2c(Cl)cccc2Cl)cc(OC)c1,-11%,10%
COc1ccc(Cl)cc1Nc1cc(C)nc2nc(-c3ccco3)nn12,51%[activator],0%
CC(C)NC(=O)NC(=O)COc1ccc(C(=O)c2ccc(F)cc2)cc1,?,?
COc1ccc(/C=C(/C#N)c2nc3ccc(C)cc3[nH]2)cc1O,28%,62%[activator]
COCCN1C(=O)c2ccccc2C(C(=O)Nc2ccc(C(=O)OC)cc2)C12CCCC2 (stereo not given),-10%,-8%
COc1cccc(-n2c(=O)c3c(C)c(C)sc3n(CC(=O)NCCc3ccc(OC)c(OC)c3)c2=O)c1,-9%,0%
Cc1ccc(N2CC(C(=O)Nc3c(C)nn(C)c3C)CC2=O)cc1 (stereo not given),-2%,16%
Fc1ccccc1Nc1ncnc2c1nc1n2CCCCC1,5%,123%[activator]
COc1ccc(C(=O)Nc2ccc(N3CCOCC3)c(C(F)(F)F)c2)cc1OC,-5%,0%
CCNc1nc(NC(C)(C)C)nc(Oc2ccc(=O)n(C)n2)n1,-11%,-21%
CCOc1ccc(NC(=O)c2cc(=O)[nH]c3ccccc23)cc1,-14%,10%
O=C(Nc1cc(C(F)(F)F)ccc1Cl)c1cc(-c2ccc3c(c2)OCCO3)on1,-3%,5%
COC(=O)c1ccc(C2c3c(oc4cc(C)c(C)cc4c3=O)C(=O)N2c2ccccn2)cc1 (stereo not given),?,-13%
COc1ccc(CCNCc2ccc(Cl)cc2)cc1,8.9µM*,2%
CCNC(=O)NC(=O)C(C)N(C)CCC(=O)NC (stereo not given),5%,2%
Cc1ccc(C(=O)CSc2nc3nc[nH]c3c(=O)[nH]2)cc1,-5%,17%
CCOc1ccc(CCNC(=O)CN2C(=O)COc3ccc(S(=O)(=O)N4CCCCCC4)cc32)cc1,51%[activator],15%
N#Cc1ccc(NCCNc2cnccn2)nc1,-3%,-1%
CCCCn1c(CNC(=O)c2ccc(OC)cc2)nnc1SCC(=O)Nc1ccccc1,12%,2%
Cc1ccccc1C(=O)N1CC/C(=N\OS(=O)(=O)O)c2ccc(Cl)cc21,-15%,-24%
CCC(C)C(NC(N)=O)C(=O)NCCc1ccc(Cl)cc1 (stereo not given),1%,-10%
Cc1cc(-c2ccccc2)n2nc(-c3cccc(Br)c3)cc2n1,22%,-5%
Cc1cc(C)n(-c2nc3c(c(=O)n(C)c(=O)n3C)n2C/C=C/c2ccccc2)n1,7%,-7%
C=CCNC(=O)c1ccccc1NC(=O)c1cnccn1,0%,7%
CC(=O)Nc1cccc(NC(=O)c2cc(=O)[nH]c3ccccc23)c1,12%,18%
CCCNC(=O)CN(C)C(=O)NC(c1ccc(C(C)C)cc1)C(C)C (stereo not given),17%,2%
Cn1ccnc1C(NC(=O)c1nn(C)c(=O)c2ccccc12)c1ccccc1 (stereo not given),20%,27%
N#C/C(=C/c1cccc(F)c1)S(=O)(=O)c1ccc(Cl)cc1,19%,0%
CCC(C)(C)C1CCc2c(sc(NC(=O)CC(C)C)c2C#N)C1 (stereo not given),13%,11%
Cc1ccc(NS(=O)(=O)c2ccc3c(c2)-c2oncc2CO3)cc1F,286%[activator],9%

# 14 neighbouring records already listed, for reference:
SMILES,StopGo RLuc,2A firefly
CCOc1ccc(CCNC(=O)CN2C(=O)COc3ccc(S(=O)(=O)N4CCCCCC4)cc32)cc1,51%[activator],15%
N#Cc1ccc(NCCNc2cnccn2)nc1,-3%,-1%
CCCCn1c(CNC(=O)c2ccc(OC)cc2)nnc1SCC(=O)Nc1ccccc1,12%,2%
Cc1ccccc1C(=O)N1CC/C(=N\OS(=O)(=O)O)c2ccc(Cl)cc21,-15%,-24%
CCC(C)C(NC(N)=O)C(=O)NCCc1ccc(Cl)cc1 (stereo not given),1%,-10%
Cc1cc(-c2ccccc2)n2nc(-c3cccc(Br)c3)cc2n1,22%,-5%
Cc1cc(C)n(-c2nc3c(c(=O)n(C)c(=O)n3C)n2C/C=C/c2ccccc2)n1,7%,-7%
C=CCNC(=O)c1ccccc1NC(=O)c1cnccn1,0%,7%
CC(=O)Nc1cccc(NC(=O)c2cc(=O)[nH]c3ccccc23)c1,12%,18%
CCCNC(=O)CN(C)C(=O)NC(c1ccc(C(C)C)cc1)C(C)C (stereo not given),17%,2%
Cn1ccnc1C(NC(=O)c1nn(C)c(=O)c2ccccc12)c1ccccc1 (stereo not given),20%,27%
N#C/C(=C/c1cccc(F)c1)S(=O)(=O)c1ccc(Cl)cc1,19%,0%
CCC(C)(C)C1CCc2c(sc(NC(=O)CC(C)C)c2C#N)C1 (stereo not given),13%,11%
Cc1ccc(NS(=O)(=O)c2ccc3c(c2)-c2oncc2CO3)cc1F,286%[activator],9%

# (list continues)
SMILES,StopGo RLuc,2A firefly
CCN(C(=O)CCn1cnc2onc(-c3ccc(F)cc3)c2c1=O)c1ccc(OC)cc1,?,?
CC(C)Cc1ccc(C(=O)O)s1,-7%[1.06 µM],24%
O=C(COC(=O)c1ccc(S(=O)(=O)C(F)F)cc1)c1ccc(F)cc1,3%,-5%
CCCCCCn1nc(C(=O)OCC(=O)N2c3ccccc3NC(=O)C2(C)C)c2ccccc2c1=O,35%[activator],35%[activator]
Cc1cccc(-c2nc(SCC(=O)Nc3cccc(C(F)(F)F)c3)n3[nH]c(=O)cc3n2)c1,-28%,-6%
O=CNC12CC3CCC(CC(C3)C1)C2,2%,8%
COc1ccc(S(=O)(=O)N2CCC(C(=O)Nc3ccc(Oc4ccccc4)cc3)CC2)cc1OC,-29%,-29%
COC(=O)C1=C(C(=O)OC)SC(=C(Cl)C(=S)Nc2ccccc2)S1,49%[activator],36%[activator]
O=C(Nc1ccccc1)c1cc(C2CC2)nc2ccccc12,-13%,-7%
CCCC1CCC(c2ccc(C(=O)Oc3cncc(Cl)c3)cc2)CC1 (stereo not given),5%,14%
Cc1ccc(-c2nc(CNC(=O)C(C)Oc3ccc(F)cc3)cs2)cc1 (stereo not given),-13%,-4%
Cc1ccc(C)c(CS(=O)(=O)Cc2nc(C(C)C)no2)c1,25%,1%
CCc1cccc(N(CC)C(=O)Cn2nc(Cc3ccncc3)c3ccccc3c2=O)c1,4%,-22%
CCCCCCCCS(=O)CCC(N)=O (stereo not given),-1%[1.06 µM],0%
O=C(Nc1ccc(C(F)(F)F)cc1)C1CCCC1,19%,79%[activator]
CNC(=O)c1ccc(C)c(NC(=O)c2ccc3c(c2)CCCC3)c1,-7%,0%
CN1CCN(c2ccc(NC(=O)CCc3ncc(-c4ccc(Cl)cc4)o3)cc2)CC1,1%,9%
Nc1ccc(S(N)(=O)=O)cc1[N+](=O)[O-],-10%,17%
CN1C(=O)c2ccccc2Sc2ccc(NC(=O)NCc3ccccc3Br)cc21,54%[activator],?
CC(C)c1ccc(NC(=O)c2ccccc2Cl)cc1,19%,145%[activator]
CCOC(=O)c1cc(-c2ccccc2)n(CC(=O)NCc2ccc(C)cc2)c1C,1%,-19%
CCCNC(=O)Nc1ccc2nc(N3CCOCC3)cc(C)c2c1,35%[activator],19%
CCOc1ccc(/C=C(\C#N)c2nc3ccccc3c(=O)[nH]2)cc1OC,-1%,6%
CNC(=O)CCc1c(C)nc2c(c(OC)nn2C)c1C,-15%,-8%
C=CCN(C(=O)Cc1cccc2cccnc12)C1CCS(=O)(=O)C1 (stereo not given),-14%,8%
CCN(CC)S(=O)(=O)c1ccc2c(c1)N(CC(=O)N1CCN(c3cccc(C(F)(F)F)c3)CC1)C(=O)CO2,-15%,-7%
CCCOc1ccc(C(F)(F)F)cc1N,-13%[1.06 µM],23%
Cc1ccc(C)n1-c1nnc(N2CCCC(C(=O)NCc3cccc(F)c3)C2)s1 (stereo not given),-11%,8%
COC(=O)c1c(-c2cccs2)csc1NC(=O)c1cc(OC)c(OC)c(OC)c1,-3%,-22%
O=C(c1ccccc1F)N1c2nc(-c3ccco3)nn2C2(CCCCC2)[C@@H]2CCCC[C@@H]21,-22%,-18%
Cn1c(=O)c2c(SCC(=O)N3CCc4ccccc43)nc(-c3ccc(Cl)cc3)nc2n(C)c1=O,9%,-12%
C=CCSC1=N/C(=C\c2ccc(SC)cc2)C(=O)S1,-17%,-6%
CN(C)c1ccc(C#N)cc1,-8%[1.06 µM],16%
Cc1ccc(CNC(=O)CCCn2c(=O)c3ccccc3n(CC(=O)C(C)(C)C)c2=O)cc1,21%,1%
CCN1CCN(c2oc(-c3ccc(COc4ccccc4C)o3)nc2C#N)CC1,-13%,-6%
Cc1nc(N)c(S(=O)(=O)c2ccccc2)c(Nc2ccc(Br)cc2)n1,-12%,-19%
CCc1ccc2nc(N(Cc3cccnc3)C(=O)c3cccs3)sc2c1,14%,109%[activator]
COc1cccc(NC(=O)CSc2nc3ccc(NC(=O)c4ccco4)cc3s2)c1,?,?
Cc1ccc(NC(=O)Cn2c(=O)n(Cc3ccccc3)c(=O)c3c(C)c(C)sc32)c(C)c1,3%,-14%
Cc1cccc2cc(CN(CC3CCCO3)S(=O)(=O)c3ccccc3)c(=O)[nH]c12 (stereo not given),105%[activator],0%
CN(C)S(=O)(=O)c1ccc2nc(NC(=O)c3ccc(C#N)cc3)sc2c1,14%,24%
O=C(CSC1CCCCC1)c1ccc(O)cc1O,27%,204%[activator]
CC1CN(C(=O)CCc2ncc(-c3ccc(Cl)cc3)o2)CCO1 (stereo not given),28%,105%[activator]
Cc1ccc2c(CSc3nc(N)cc(N)n3)cc(=O)oc2c1C,35%[activator],45%[activator]
N#Cc1ccccc1OCc1ccc(C(=O)O)o1,15%,24%
O=C(O)CCSc1nnc(-c2ccc(Cl)cc2Cl)o1,11%,-97%
CNc1c(NS(=O)(=O)c2ccc(C)cc2)c(=O)oc2ccccc12,6%,8%
O=C(Nc1cccc(NC(=O)c2ccc(Br)o2)c1)c1ccccc1,?,10%
CCn1cnc2c1c(=O)n(CC(=O)N1CCc3ccccc31)c(=O)n2Cc1ccccc1,1%,5%
COc1cc(OC)cc(C(=O)NCCc2csc(-c3ccccn3)n2)c1,-5%,11%
# More records:
SMILES,StopGo RLuc,2A firefly
CCOC(=O)c1cccc(NS(=O)(=O)c2cn(C)c(C)n2)c1,30%,-3%
Cc1cc(C)n2nc(NCc3ccccc3Cl)nc2n1,-4%,-6%
CCN(CC)CCCNC(=O)c1ccc(Cn2c(=O)[nH]c3cc(OC)c(OC)cc3c2=O)cc1,-14%,-13%
Cc1ccc(-n2nc(CO)c(C(=O)NCc3cccs3)n2)cc1,0%,12%
CC(=O)c1ccccc1NCC(=O)NCC(F)(F)F,3%,1%
COC(=O)c1ccc(C2CC(=O)Nc3c2c(C)nn3-c2nc(C)cc(C)n2)cc1 (stereo not given),-4%,-5%
O=C(Cc1c[nH]c2ccccc12)NCCc1cccc(Cl)c1,29%,15%
COc1cc(NC(=O)c2nc3ccccc3nc2N2CCCCC2)cc(OC)c1,6%,-3%
CCOc1cc(C(=O)OCC(=O)NC(N)=O)cc(OCC)c1OCC,-1%,0%
CCC(C(=O)NC1CC1)c1ccccc1 (stereo not given),-2%,-4%
O=C(N/N=C/C1CC2CCC1C2)c1ccccc1[N+](=O)[O-] (stereo not given),3%,57%[activator]
Cc1cc(C)c(/C=C/c2onc(C)c2S(=O)(=O)N2CCC(C(=O)N3CCN(c4ccc(Cl)cc4)CC3)CC2)c(C)c1,7%,-17%
CC1(C)CC(=O)C2=C(C1)c1c(ccc3ccccc13)NC2c1ccncc1 (stereo not given),14%,-21%
Cc1cccc(C)c1NC(=O)Cc1c(C)nc2nc(-c3cccs3)nn2c1C,-11%,0%
Cc1ccc(C)c(NC(=O)N2CCN(C)c3ncccc32)c1,-1%,-8%
Cc1cc(OCC(=O)NCc2ccccn2)c2c(C)cc(=O)oc2c1,-10%,-2%
C[C@H](CN1CCCC1)C(=O)c1ccc(C(F)(F)F)cc1,-12%,-21%
COC(=O)c1ccc([C@H]2[C@@H](C(=O)O)c3ccccc3C(=O)N2Cc2ccc(F)cc2)cc1,-8%,-10%
Cc1csc2nc(COC(=O)c3ccc(NC(=O)c4ccccc4Br)cc3)cc(=O)n12,46%[activator],-9%
CCOc1ccccc1Oc1coc2cc(OC)ccc2c1=O,16%,0%
COc1ccccc1N1CCN(C(C(=O)O)c2c[nH]c3cc(NC(=O)CCC(=O)O)ccc23)CC1 (stereo not given),7%,0%
COC(=O)c1ccc(/C=N/O)cc1,8%,19%
Cc1ccc(NC(=O)c2oc3ccc(S(=O)(=O)N4CCC5(CC4)OCCO5)cc3c2C)cc1C,-6%,0%
COc1ccc(-n2c(=O)c3ccc(C(=O)NCc4ccc(C)cc4)cc3n(Cc3ccc(C)cc3)c2=O)cc1,-3%,-10%
CCC12CC3CC(CC(N)(C3)C1)C2,5%,-5%
C=CCN(CC#Cc1ccccc1)Cc1ccc2c(c1)OCO2,6%,29%
Cc1cccc(OCC(=O)Nc2ccc(-c3nc4cc(C)ccc4o3)c(O)c2)c1,-8%,61%[activator]
CCc1ccc(Nc2ncnc3c2cnn3-c2cccc(C)c2)cc1,16%,148%[activator]
CCOCCCNC(=O)CC1CC2CCC1C2 (stereo not given),12%,18%
CC(=O)Nc1ccc(NC(=O)CSc2nccn2C)cc1,-7%,16%
CCOc1ccc(NC(=O)c2n[nH]c3ccccc23)cc1S(=O)(=O)N1CCCC1,138%[activator],24%
N#Cc1nc(-c2ccccc2)oc1NCC1CCCO1 (stereo not given),22%,102%[activator]
Cc1nn(-c2nc3c(c(=O)n(CCN4CCCCC4)c(=O)n3C)n2C)c(C)c1C,5%,8%
COc1ccc(N2CCN(C(CNC(=O)C(=O)NCCc3ccccc3)c3cccnc3)CC2)cc1 (stereo not given),-5%,-11%
CCC(C)c1ccc(NC(=O)CCc2ncc(-c3ccccc3)o2)cc1 (stereo not given),-4%,25%
COc1ccc(Cl)cc1NC(=O)COc1ccccc1OC,8%,160%[activator]

# Compound activity (PubChem BioAssay)
